From PubChem BioAssay
Resorufin fluor = qHTS Assay for Spectroscopic Profiling in Resorufin Spectral Region | Compound fluorescence, resorufin region 547/598 nm, buffer; active compounds read high | max dye-equivalent concentration, M | hit rate 0.04% among 59,000; active = above 10 nM dye equivalent; inconclusive = 1 to 10 nM; inactive = 1 nM or less; a few of its hits are not listed in these tables; further: highest value over a series up to 38 µM
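Tris 100 mM pH 8.0; compound added, 15 min RT; CCD imager read, ex 547 nm/em 598 nm; signal normalized to resorufin standard curve (six concentrations per plate) as dye-equivalent concentration.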
AID923 = qHTS Assay for Allosteric/Competitive Inhibitors of Caspase-1: Spectroscopic Profiling in AFC Spectral Region. Potency, µM (highest dose often 57.5 µM), for the others: top-dose fluorescence increase, hits mostly activators. hit rate 1.1% among 75,000. compound fluorescence, AFC spectral region (405/520 nm); almost no hit is shown here; active means well fitted activation curve with a large enough effect; inconclusive means small, poorly fitted or top-dose-only effect;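 further: potency means the concentration at half of the fitted maximal effect; 0% is about no effect; scaled to a free AFC standard on each plate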
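Titrations up to 57 uM read every 20 sec for 3 min (405/520 nm) with 50 nM caspase 1 and 5 uM Ac-WEHD-AFC, pH 7.5 HEPES buffer. Fluorescence-vs-time intercept gave baseline, scaled against on-plate AFC standard.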
A647 autofl = qHTS Assay for Spectroscopic Profiling in A647 Spectral Region; 59,000 tested, under 10 active; max dye-equivalent concentration, M; Compound fluorescence, A647 channel (570/671 nm), Tris buffer; AID 592, 2007; active means above 1 µM dye equivalent; inconclusive means 0.1 to 1 µM; inactive means 0.1 µM or less;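 further: values scaled relative to a standard on each plate; highest value over a series up to 38 µM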
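Fluorescence read (570 nm ex, 671 nm em) after 15 min RT incubation of compounds in 100 mM Tris buffer, pH 8.0; values expressed as dye-equivalent concentration against a six-point A647 standard series on each plate.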
A488 fluor = qHTS Assay for Spectroscopic Profiling in A488 Spectral Region; AID 591, 2007; max dye equivalency, M; compound autofluorescence, A488 spectral region, dye equivalency; active compounds read high; hit rate 0.1% among 59,000; active = above 10 nM dye equivalent; inconclusive = 1 to 10 nM; inactive = 1 nM or less; about half of its hits are not listed in these tables;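 further: highest value over a series up to 38 µM; compound alone in buffer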
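Compound autofluorescence was read in 100 mM Tris pH 8.0 after 15 min at room temperature, ex 480 nm/em 540 nm. Intensities were converted to A488 dye-equivalent concentration using an on-plate six-point A488 standard curve.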
TSHR agonist = qHTS Assay for Agonists of the Thyroid Stimulating Hormone Receptor; hit rate 0.48% among 73,000; Potency, µM (titrated, usually from 57.1 µM), for the others: top-dose activation, usual class: activators; Thyrotropin receptor (Homo sapiens), P16473; HEK293-CNG-TSHR cells (CNG channel as cAMP sensor), membrane potential dye, cAMP; active = well fitted activation curve of enough size with the parental cells flat; inconclusive = any curve in the parental cells; inactive = parental cells flat and receptor cells flat or falling; further: potency means the concentration at half of the fitted maximal effect; % of control where 0% means no effect; weak receptor curves with flat parental cells got no call and are not listed
Target sequence (P16473 whole entry, looked up): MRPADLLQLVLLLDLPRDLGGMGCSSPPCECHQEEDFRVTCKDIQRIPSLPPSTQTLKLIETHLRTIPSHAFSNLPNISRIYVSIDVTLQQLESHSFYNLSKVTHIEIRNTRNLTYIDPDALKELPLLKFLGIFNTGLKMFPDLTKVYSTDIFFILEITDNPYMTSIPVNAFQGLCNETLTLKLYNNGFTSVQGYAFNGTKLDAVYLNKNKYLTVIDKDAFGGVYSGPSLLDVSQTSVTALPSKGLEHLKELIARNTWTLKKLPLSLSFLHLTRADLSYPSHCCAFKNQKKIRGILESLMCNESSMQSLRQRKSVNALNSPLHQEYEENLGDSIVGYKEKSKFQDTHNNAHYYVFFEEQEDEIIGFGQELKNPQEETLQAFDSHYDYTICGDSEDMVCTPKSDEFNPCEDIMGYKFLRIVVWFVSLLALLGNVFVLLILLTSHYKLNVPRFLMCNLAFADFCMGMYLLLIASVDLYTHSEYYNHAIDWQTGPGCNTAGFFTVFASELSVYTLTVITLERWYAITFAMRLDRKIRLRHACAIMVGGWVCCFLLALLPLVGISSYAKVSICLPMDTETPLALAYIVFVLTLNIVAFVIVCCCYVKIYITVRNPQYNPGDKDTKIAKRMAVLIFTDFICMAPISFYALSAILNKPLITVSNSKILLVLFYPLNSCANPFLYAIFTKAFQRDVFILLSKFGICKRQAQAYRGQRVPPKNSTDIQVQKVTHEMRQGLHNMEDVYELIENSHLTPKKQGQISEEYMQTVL
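cAMP rise detected as CNG-channel membrane depolarization by fluorescent dye (emission 590 nm), 30 min after compound, following 60 min dye loading containing 100 uM RO 20-1724 at room temperature. Cells: TSHR/CNG HEK 293, with parental CNG HEK 293 as control.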
The depositor's hits bear a star; & = joins results of further samples; [ ] = another dose, or the depositor's remark.

Screening CCCCCCn1c(CN2CCCCC2)nc2c1c(=O)n(C)c(=O)n2C returned Resorufin fluor inactive, AID923 -0.7%, A647 autofl 1.9e-08, A488 fluor inactive and TSHR agonist inconclusive.
For CC(=O)Nc1ccc(C(=O)Nc2ccc(S(=O)(=O)NCC3CCCO3)cc2)cc1 (centres undefined) the results were Resorufin fluor inactive, AID923 1.6%, A647 autofl 2.4e-09, A488 fluor inactive and TSHR agonist -6%.
Screening CC(=O)c1ccc(OCC(C)C)c(CN2CCCCC2)c1 returned Resorufin fluor inactive, AID923 0.5%, A647 autofl 1e-09, A488 fluor inactive and TSHR agonist inconclusive.
Screening FC(F)(F)c1cc(CN2CCC3(CCNCC3)CC2)cc(C(F)(F)F)c1 returned Resorufin fluor inactive, AID923 -0.1%, A647 autofl 1.8e-08, A488 fluor inactive and TSHR agonist -6%.
For CCCc1cc(=O)oc2cc(OCC(=O)OC)cc(OCC(=O)OC)c12 the results were AID923 1.4% and TSHR agonist 7%.
COCCNc1nc(C)nc2c1nc(-c1ccccc1)n2CC1CCN(C)CC1 was read as AID923 -0.3% and TSHR agonist 0%.
`N#Cc1ccc(CSc2nnc(Cc3cccs3)n2Cc2ccco2)cc1` gave Resorufin fluor inactive, AID923 0.1%, A647 autofl 1e-09, A488 fluor inactive and TSHR agonist inconclusive.
CCOC(=O)C1CSC(Cc2ccc(OCc3ccc([N+](=O)[O-])cc3)cc2)N1 (centres undefined) was read as AID923 -1.0% and TSHR agonist -5%.
For C/C=C/c1ccc(OCCCCN2C(=O)NC(C)(C)C2=O)c(OC)c1 the results were Resorufin fluor inactive, AID923 1.7%, A647 autofl 4.2e-08, A488 fluor inactive and TSHR agonist 2%.
For COc1ccccc1-c1nnc2sc(-c3ccc(N(C)C)cc3)nn12 the results were Resorufin fluor inactive, AID923 8.8%, A647 autofl 1.5e-08 and A488 fluor inactive.

Of the compounds above, these have an aryl methoxy group.
For C/C=C/c1ccc(OCCCCN2C(=O)NC(C)(C)C2=O)c(OC)c1 the results were Resorufin fluor inactive, AID923 1.7%, A647 autofl 4.2e-08, A488 fluor inactive and TSHR agonist 2%.
For COc1ccccc1-c1nnc2sc(-c3ccc(N(C)C)cc3)nn12 the results were Resorufin fluor inactive, AID923 8.8%, A647 autofl 1.5e-08 and A488 fluor inactive.

Later entries.
COc1ccc(C2=NOC(C(=O)Nc3cc(C)nn3-c3ccccc3)C2)cc1OC (centres undefined) was read as AID923 2.8% and TSHR agonist -4%.
Screening Cc1ccc(CN2CCN(C(=O)C3CCC3)CC2)cc1 returned Resorufin fluor inactive, AID923 0.0%, A647 autofl 1.4e-08, A488 fluor inactive and TSHR agonist 0%.
CCn1cc(C(=O)NCCCOC)c2cc(OC)c(OC)cc2c1=O was read as Resorufin fluor inactive, AID923 1.4%, A647 autofl 5.2e-09, A488 fluor inactive and TSHR agonist -2%.
COCCNC(=O)C(OC(=O)CC1Sc2ccccc2NC1=O)c1ccncc1 (centres undefined) was read as Resorufin fluor inactive, AID923 1.2%, A647 autofl 1e-09, A488 fluor inactive and TSHR agonist 8%.
Screening COCC(C)n1c(C)cc(C(=O)COC(=O)c2nc3nc(C)cc(C)n3n2)c1C (centres undefined) returned Resorufin fluor inactive, AID923 1.0%, A647 autofl 2.1e-08, A488 fluor inactive and TSHR agonist -1%.
Nc1nc(Cl)nc2c1ncn2[C@H]1C[C@H](O)[C@@H](CO)O1 was read as Resorufin fluor inactive, AID923 -1.0%, A647 autofl 1e-09&1e-09 and A488 fluor inactive.
`CC(=O)N(CCO)Cc1cc2cc(C)cc(C)c2[nH]c1=O` gave Resorufin fluor inactive, AID923 -2.5%, A647 autofl 3.1e-08, A488 fluor inactive and TSHR agonist -8%.
O=C(NCCc1ccc(Cl)cc1)C1CCN(S(=O)(=O)c2ccc(-n3cnnn3)cc2)CC1 was read as Resorufin fluor inactive, AID923 2.3%, A647 autofl 5.3e-08, A488 fluor inactive and TSHR agonist -5%.
CN(CCNC(=O)C1CC(=O)N(c2ccc(F)c(Cl)c2)C1)Cc1ccccc1 (centres undefined) was read as Resorufin fluor inactive, AID923 -0.5%, A647 autofl 1e-09, A488 fluor inactive and TSHR agonist 5%.
CC(C)c1ccc(NC(=O)C(c2ccccc2)N2CCN(C(=O)c3ccco3)CC2)cc1 (centres undefined) was read as Resorufin fluor inactive, AID923 2.0%, A647 autofl 2.9e-08, A488 fluor inactive and TSHR agonist 8%.
c1ccc(Oc2cc(-n3cccn3)ncn2)cc1 was read as Resorufin fluor inactive, AID923 -0.8%, A647 autofl 3.2e-08, A488 fluor inactive and TSHR agonist -5%.
Screening COC(=O)C1=C(C)OC(N)=C(C#N)C1c1ccccc1 (centres undefined) returned Resorufin fluor inactive, AID923 1.9%, A647 autofl 1e-09, A488 fluor inactive and TSHR agonist 3%.
CCCn1c(N)c(C(=O)COC(=O)c2c(C)noc2C)c(=O)n(C)c1=O was read as Resorufin fluor inactive, AID923 0.4%, A647 autofl 1.6e-09, A488 fluor inactive and TSHR agonist 0%.
Screening O=C(CSc1nc2ccccc2c(=O)n1Cc1ccco1)N1CCCCCC1 returned Resorufin fluor inactive, AID923 -0.1%, A647 autofl 2e-08, A488 fluor inactive and TSHR agonist inconclusive.
CCN(CC)CCCn1c(-c2ccccc2)nc2c(N(CCOC)CCOC)nc(C)nc21 was read as AID923 -0.6% and TSHR agonist inconclusive.
Cc1cc(NC(=O)COc2cccc(Oc3ccccc3)c2)no1 was read as Resorufin fluor inactive, AID923 -0.1%, A647 autofl 5.6e-09, A488 fluor inactive and TSHR agonist -2%.
`CCOC(=O)N1CCN(c2c(NCc3ccccc3OC)c(=O)c2=O)CC1` gave AID923 0.0% and TSHR agonist 0%.
Screening Cc1cc(Br)ccc1NC(=O)CNC(=O)CN1C(=O)NC2(CCCCCC2)C1=O returned Resorufin fluor inactive, AID923 -0.1%, A647 autofl 3.1e-09, A488 fluor inactive and TSHR agonist 0%.
O=C1NCCCC1C(=O)N1CCN(C(=O)c2ccco2)CC1 (centres undefined) was read as AID923 0.2% and TSHR agonist inconclusive.
`CO[C@@H]1/C=C\CC(=O)N[C@@H](C)C(=O)OC[C@H](NS(=O)(=O)c2ccc(C)cc2)[C@H](C)/C=C\CC(=O)OC[C@H]1C` gave AID923 2.3%[11.5 µM] and TSHR agonist -5%[11.4 µM].
Screening CCOC(=O)c1c(N)sc(C(=O)N2CCCC2)c1C returned Resorufin fluor inactive, AID923 -0.6%, A647 autofl 2.4e-08, A488 fluor inactive and TSHR agonist 2%.
`Cc1nn(C(C)C(=O)N2CCCCC2)c(=O)c2c1sc1ccccc12` (centres undefined) gave AID923 0.3% and TSHR agonist 2%.
COc1ccc(C)cc1S(=O)(=O)N1CCN(S(=O)(=O)c2cc(C)ccc2OC)CC1 was read as AID923 -0.3% and TSHR agonist 18%.
Screening CCOP(=O)(CC(C(C)=O)C(O)c1ccccc1)OCC (centres undefined) returned AID923 0.6%[11.5 µM] and TSHR agonist -4%[11.4 µM].
Screening CCOCCCNC(=O)C(c1ccc(C)cc1)N1CCOCC1 (centres undefined) returned AID923 -2.8% and TSHR agonist 6%.
CCC1CCCCN1C(=O)CSc1nnc(-c2ccc3c(c2)OCCO3)o1 (centres undefined) was read as Resorufin fluor inactive, AID923 0.3%, A647 autofl 2.8e-08, A488 fluor inactive and TSHR agonist 24%.
Screening COc1cccc(-c2csc(N3CCN(C(=O)C4CCCCC4)CC3)n2)c1 returned Resorufin fluor inactive, AID923 4.6%, A647 autofl 5.1e-09, A488 fluor inactive and TSHR agonist inconclusive.
For O=C(COC(=O)c1ccccn1)NCCCc1ccccc1 the results were Resorufin fluor inactive, AID923 -0.4%, A647 autofl 1.2e-08, A488 fluor inactive and TSHR agonist -1%.
Oc1ccccc1CNCc1ccccc1O was read as Resorufin fluor inactive, AID923 -1.4%[11.5 µM], A647 autofl 1e-09, A488 fluor inactive and TSHR agonist inconclusive.
For O=C(Nc1ncc(Br)s1)C1CCCN1S(=O)(=O)c1cccc2cccnc12 (centres undefined) the results were AID923 -1.0% and TSHR agonist 8%.
O=C(CCn1c(=O)[nH]c2ccsc2c1=O)N1CCN(c2cccc(Cl)c2)CC1 was read as Resorufin fluor inactive, AID923 -0.7%, A647 autofl 3.7e-08, A488 fluor inactive and TSHR agonist 6%.
Screening CC1CCCCC1NC(=O)C1CCN(S(=O)(=O)N2CCCCCC2)CC1 (centres undefined) returned Resorufin fluor inactive, AID923 0.0%, A647 autofl 1.3e-08, A488 fluor inactive and TSHR agonist 23%.
`CN1CCN(C(=O)C2CCN(S(=O)(=O)c3ccc4c(c3)oc(=O)n4C)CC2)CC1` gave AID923 -0.8% and TSHR agonist -1%.
Cc1cccc(OCc2nnc(SCC(=O)NCCc3ccccc3)o2)c1 was read as AID923 1.8% and TSHR agonist 19%[11.4 µM].
c1ccc(CCCNc2ncnc3nc[nH]c23)cc1 was read as AID923 -1.4% and TSHR agonist inconclusive.
For Cc1onc(-c2ccncc2)c1C(=O)O the results were Resorufin fluor inactive, AID923 -0.1%, A647 autofl 1.9e-08, A488 fluor inactive and TSHR agonist -2%.
`CC1CC(C)CN(S(=O)(=O)c2ccc(C(=O)Nc3nnc(-c4cccs4)o3)cc2)C1` (centres undefined) gave Resorufin fluor inactive, AID923 -1.9%, A647 autofl 2.4e-09, A488 fluor inactive and TSHR agonist -2%.
c1ccc(OCCCCn2cnc3ccccc32)cc1 was read as Resorufin fluor inactive, AID923 6.5%, A647 autofl 1e-09, A488 fluor inactive and TSHR agonist inconclusive.
`CCOc1ccccc1Nc1nc(N)nc(CSc2nncn2C)n1` gave Resorufin fluor inactive, AID923 0.0%, A647 autofl 4e-08, A488 fluor inactive and TSHR agonist inconclusive.
`CN(C)CC(O)COc1cccc(OCC(O)CN(C)C)c1` (centres undefined) gave Resorufin fluor inactive, A647 autofl 1e-09 and A488 fluor inactive.

Random excerpt: two entries already listed.
For Cc1onc(-c2ccncc2)c1C(=O)O the results were Resorufin fluor inactive, AID923 -0.1%, A647 autofl 1.9e-08, A488 fluor inactive and TSHR agonist -2%.
Cc1cccc(OCc2nnc(SCC(=O)NCCc3ccccc3)o2)c1 was read as AID923 1.8% and TSHR agonist 19%[11.4 µM].

The listing continues:
For O=C(Cc1ccccc1)N1CCC(c2nc3ccccc3[nH]2)CC1 the results were Resorufin fluor inactive, AID923 -0.4%, A647 autofl 1e-09, A488 fluor inactive and TSHR agonist 3%[11.4 µM].
Screening COc1ccc(N2CCN(Cc3cc(=O)oc4c3ccc3ccccc34)CC2)cc1 returned Resorufin fluor inactive, AID923 -1.3%, A647 autofl 1e-09, A488 fluor inactive and TSHR agonist 2%.
Screening c1ccc(Cn2nnnc2C(c2ccccc2)N2CCN(c3nc4ccccc4s3)CC2)cc1 (centres undefined) returned Resorufin fluor inactive, AID923 0.6%, A647 autofl 2.1e-09, A488 fluor inactive and TSHR agonist 11%.
`O=C(Oc1cccc2c(=O)[nH]ccc12)c1ccccc1` gave Resorufin fluor inactive, AID923 2.4%, A647 autofl 1e-09, A488 fluor inactive and TSHR agonist -8%.

Not all compounds are listed (hit frequency here may not be typical).
